Screening data deposited in PubChem BioAssay by National Center for Advancing Translational Sciences (NCATS).
VACV mCherry inh = vaccinia inhibition (mCherry reporter). AID 720579. Vaccinia virus mCherry reporter infection, fluorescence; about a quarter of the inactives have no number. Potency, µM (doses to about 36.5 µM), without a hit: at the top dose activity change, negative = inhibition, usual class: inhibitors. actives 0.63% (n = 310,000); active = well fitted inhibition curve with a large enough effect; inconclusive = small, poorly fitted or top-dose-only effect; inactive = no such curve, though single readings can be large or run the other way; tested in A549 cells; further: nearly all actives have a fitted effect of over 35% in size; inactives centre near -10
VACV Venus inh = vaccinia inhibition (Venus reporter); Potency, µM (highest dose often 36.5 µM), for the others: at the highest dose activity change, negative = inhibition, hits mostly inhibitors; Vaccinia virus Venus reporter expression, fluorescence; AID 720580; actives 0.46% (n = 330,000); active means well fitted inhibition curve with a large enough effect; inconclusive means small, poorly fitted or top-dose-only effect; inactive means no such curve, though single readings can be large or run the other way; tested in A549 cells; further: nearly all actives have a fitted effect of over 30% in size; inactives centre near -10
* hit, by the source's call; i = inactive; u = inconclusive; x = no result given; [ ] = remark or other dose. On the % scale 0 is the no-effect control and ±100 the full control effect; potency means the concentration at half of the fitted maximal effect.

SMILES	VACV mCherry inh	VACV Venus inh
CCC(=O)Oc1ccc(C(=O)Nc2ccc([N+](=O)[O-])cc2)cc1	-14%	-10%
Cc1ccc(NS(=O)(=O)c2ccc3oc(=O)c4ncn(C)c4c3c2)cc1C	-23%	-16%
CCCSc1nc2c(cnn2-c2ccc(F)cc2)c(=O)[nH]1	-21%	-8%
CC1CC(Nc2ccccc2)c2ccccc2N1C(=O)c1ccco1 (stereo not drawn)	-12%[7.34 µM]	2%[7.34 µM]
c1ccc(N/N=C(\Cc2nc3ccccc3[nH]2)c2ccccc2)cc1	-13%	-30%
Cc1cccc(-n2c(CNC(=O)c3ccc(S(=O)(=O)N4CCCC4)cc3)n[nH]c2=S)c1	-10%	-3%
CC(C)c1ccc(S(=O)(=O)NC2CCS(=O)(=O)C2)cc1 (stereo not drawn)	-20%	-20%
COc1ccc(-n2ncc3c(NCC4CCCO4)ncnc32)cc1 (stereo not drawn)	-1%	-21%
CC(=O)C12CCCCC1CC1[C@@H]3CC(C)C4=CC(=O)CC[C@]4(C)C3CC[C@@]12C (stereo partly drawn)	-6%	-12%
CC(C)(C)[C@H]1C=C(C(=O)NC2CC2)O[C@@H](OCc2ccc(CO)cc2)C1	-28%	-17%
Cc1ccc2[nH]c(C(=O)N3CCOCC3)cc2c1	-21%	-22%
Oc1c(C(Nc2ccccn2)c2ccccc2F)ccc2cccnc12 (stereo not drawn)	-6%[7.34 µM]	-2%[7.34 µM]
O=C(Nc1nc(OCC(F)(F)F)cnc1/C=C\c1ccccc1)c1ccsc1	i	-15%
O=C(Nc1ccccc1)C1Cc2c(-c3ccccc3Oc3ccccc3)ccnc2O1 (stereo not drawn)	32%[activator]	-8%
Cc1ccc(CN2C(=O)CCC2C(=O)NCCCN2CCOCC2)cc1 (stereo not drawn)	x	-7%
Cc1noc(C)c1NC(=O)N(C)C[C@H]1OCCCC[C@@H](C)Oc2ccc(NS(=O)(=O)c3ccccc3)cc2C(=O)N([C@H](C)CO)C[C@@H]1C	i	-13%
N#Cc1cc([N+](=O)[O-])ccc1NC(=O)CSc1n[nH]c(=O)[nH]c1=O	-14%	-3%
CCN(CCCNC(=O)CCNC(=O)Cn1cnc2ccccc2c1=O)c1ccccc1	-1%	-8%
COC(C/C=C\C(=O)[C@H](C)OCc1ccccc1)OC	-19%	20%
Nc1nonc1-n1nnc(C(=O)N/N=C/c2ccccn2)c1-c1ccccc1	u	-28%

The final seven compounds of the part before lead into the next.
SMILES	VACV mCherry inh	VACV Venus inh
O=C(Nc1ccccc1)C1Cc2c(-c3ccccc3Oc3ccccc3)ccnc2O1 (stereo not drawn)	32%[activator]	-8%
Cc1ccc(CN2C(=O)CCC2C(=O)NCCCN2CCOCC2)cc1 (stereo not drawn)	x	-7%
Cc1noc(C)c1NC(=O)N(C)C[C@H]1OCCCC[C@@H](C)Oc2ccc(NS(=O)(=O)c3ccccc3)cc2C(=O)N([C@H](C)CO)C[C@@H]1C	i	-13%
N#Cc1cc([N+](=O)[O-])ccc1NC(=O)CSc1n[nH]c(=O)[nH]c1=O	-14%	-3%
CCN(CCCNC(=O)CCNC(=O)Cn1cnc2ccccc2c1=O)c1ccccc1	-1%	-8%
COC(C/C=C\C(=O)[C@H](C)OCc1ccccc1)OC	-19%	20%
Nc1nonc1-n1nnc(C(=O)N/N=C/c2ccccn2)c1-c1ccccc1	u	-28%
CC(=O)c1c(C)[nH]c(C(=O)OCC(=O)N2CCc3ccccc32)c1C	-13%	-5%
COCCNC(=O)CCCN1C(=O)CCn2nc(-c3cccn3C)cc21	-6%	12%
COc1ccc(C(=O)COC(=O)c2cccc(-n3cnnn3)c2)c(OC)c1	i	-7%
O=C(NCCCCc1ccccc1)c1cccc(Br)c1	-18%	-11%
CCc1nc2ccc(C(=O)N3CCN(C(C)=O)CC3)cn2c1N(CCC(C)C)CCN(C)C	-1%	-7%
Cc1ccc(S(=O)(=O)N2CCC(C(=O)OCCOc3ccccc3)CC2)cc1C	i	-19%
NC(=O)CC(NC(=O)Cc1cccc2ccccc12)c1ccc(NCCc2cccc(F)c2)c([N+](=O)[O-])c1 (stereo not drawn)	i	-14%
O=C(/C=C1\OCc2ccccc21)OCc1ccccc1	13%	-4%
O=S(=O)(Nn1cnnc1)c1ccccc1	-23%[1.46 µM]	-3%
O=C(CSc1nnc(-c2ccco2)c(-c2ccco2)n1)c1ccccc1	-27%	0%
COC(=O)C1=C(c2ccc(OC(F)(F)F)cc2)C[C@@H]2CC[C@H]1N2C(=O)NC(C)C	-3%	-12%
Cc1cc(=O)oc2c(CN3CCN(C)CC3)c(O)c(Cl)cc12	-21%[1.46 µM]	-12%
COC(=O)C[C@@H]1CC[C@H](NC(=O)Cc2ccccn2)[C@@H](CO)O1	-4%	-5%
CCOc1cc(C)ccc1OCc1nnc(SCC(=O)c2cccc([N+](=O)[O-])c2)n1CC	-5%	-11%
O=C(N/N=C/c1cccnc1)c1ccccc1NS(=O)(=O)c1cccs1	3%	2%
O=C(Nc1ccccc1C(F)(F)F)c1cc2ncc(CCCl)cn2n1	-11%	-1%
Cc1ccc(C(=O)NCCSc2snnc2C)cc1	x	-3%
Cc1ccc(Cl)cc1-c1cc(C(=O)NCc2ccccc2)[nH]n1	-14%	1%
CC(=O)c1sc(N/N=C2\CC3CCC2(C)C3(C)C)nc1C (stereo not drawn)	-17%	-8%
COc1ccc(Nc2cc(Cl)nc(N)n2)cc1	i	-5%

The closing two records of the section above come first, to join the parts.
SMILES	VACV mCherry inh	VACV Venus inh
CC(=O)c1sc(N/N=C2\CC3CCC2(C)C3(C)C)nc1C (stereo not drawn)	-17%	-8%
COc1ccc(Nc2cc(Cl)nc(N)n2)cc1	i	-5%
COc1ccc([C@@H]2CC=C(C(=O)O)[C@H](c3ccc(F)cc3)N2S(=O)(=O)c2ccccc2C)cc1	i	-3%
CCOC(=O)c1c(NC(=O)CCN2CCOCC2)sc2c1CC(C)(C)OC2	-20%	-9%
C/C=C/C(=O)OCC(=O)Nc1cccc(S(=O)(=O)NC2=NCCCCC2)c1	u	u
CCN1C(=O)[C@H]2[C@@H](c3ccc(OC)cc3)N3C(=O)CN(CCOC)C(=O)[C@@]3(C)[C@H]2C1=O	i	-4%
COC(=O)CN1CC(=O)N(c2ccccc2)C1=S	5%	8%
O=C(O)Cn1c(SCCOc2ccc(Cl)cc2)nc2ccccc21	-17%	-6%
CC(Sc1nccn1C)C(=O)Nc1ccc(Cl)cn1 (stereo not drawn)	-11%	-3%
COc1ccccc1N1CCN(c2csc3ccccc3c2=O)CC1	-24%	-24%
CC(=O)N1CCc2cc(S(=O)(=O)NC3CCCCC3)ccc21	3%	18%
S=c1[nH]nc(COc2ccccc2)n1/N=C/c1ccc(Cl)cc1	i	-2%
CCS(=O)(=O)N1CCC(C(=O)NCCCN2CCN(c3ccccc3F)CC2)CC1	-21%	-14%
O=C1N[C@@H](Cc2ccccc2)C(=O)N2[C@H]1C[C@]1([C@]34C[C@H]5C(=O)N[C@@H](Cc6ccccc6)C(=O)N5[C@H]3N(S(=O)(=O)c3ccccc3)c3ccccc34)c3ccccc3N(S(=O)(=O)c3ccccc3)[C@H]21	-8%	-9%
CCOC(=O)C1=C(C)N=C2SCCC(=O)N2C1c1ccc(C(=O)OC)cc1 (stereo not drawn)	i	-19%
CC1(C)CC(=O)C2=C(C1)Oc1ncn(CCCO)c(=N)c1C2c1ccccc1 (stereo not drawn)	-8%	-4%
Cc1cc(C)cc(CC(=O)N2CCC2(C)C(=O)NS(=O)(=O)c2ccccc2)c1 (stereo not drawn)	i	-9%
COc1cc2c(cc1OC)CN(C(=O)CSc1ccccc1C)CC2	i	-18%
Cc1ccc(SCc2noc(C(=O)NCC3CCCO3)c2C(=O)O)cc1C (stereo not drawn)	-11%	7%
C[C@@H]1CN([C@H](C)CO)C(=O)CCCn2nncc2CO[C@@H]1CN(C)S(=O)(=O)c1ccc2c(c1)OCCCO2	i	-7%
COc1cc(C(=O)Nc2cc(-c3cn4cccnc4n3)ccc2C)cc(OC)c1OC	-5%	-4%
Cc1ccc(CN2C(=O)COc3cc(NS(C)(=O)=O)ccc32)cc1	i	-7%

More results follow.
SMILES	VACV mCherry inh	VACV Venus inh
COc1ccc(C)cc1N(C(=O)c1ccccc1F)c1nc2ccccc2s1	-12%	-2%
Cc1ccc(CN2CCC[C@]3(N[C@H](c4ccccc4)[C@@H]4C(=O)N(C)C(=O)[C@@H]43)C2=O)cc1	-23%	-4%
CC(C)(C)NC(=O)C[C@H]1C[C@H](C(=O)N2CCOCC2)[C@@]2(C)c3[nH]c4cc(-c5ccco5)ccc4c3CCN2C1=O	-21%	-23%
CCCCOC(=O)c1ccc(NC(=O)COC(=O)CN2C(=O)NC3(CCCC3)C2=O)cc1	i	-17%
CCCC(CCC)n1[nH]c(=O)c2c(C)cc(C)nc21	-9%	-6%
C=CCn1c(CNC(=O)c2ccco2)nnc1SCC(=O)c1ccc(OC)cc1	i	-17%
CCc1c(C)c2ccc(O)c(CN3CCN(c4ccc(F)cc4)CC3)c2oc1=O	-27%	-19%
COc1ccc(CCNC2CC(=O)N(CCc3ccccc3)C2=O)cc1 (stereo not drawn)	-27%	-4%
NC(Cc1ccccc1)c1nn[nH]n1 (stereo not drawn)	-8%	7%
Cc1nc2ccc(S(=O)(=O)NCC(=O)O)cc2s1	x	5%
Cc1nc(C)c2c(c1C(F)(F)F)-c1ccccc1C2(F)F	-12%	-8%
CCc1nc2nc(C)cc(Nc3cc(C)ccc3C)n2n1	i	-10%
COc1ccc(CC(=O)OCC(=O)Nc2cccc(Br)c2)cc1	i	-8%
COc1cc(C)c(C)cc1S(=O)(=O)NC1CC(C)(C)NC(C)(C)C1	-9%	-1%
CCOC(=O)c1ccccc1NC(=O)CSc1cn(CC(=O)N2CCOCC2)c2ccccc12	-12%	-3%
Cc1ccc(CN2C(=O)C(O)(c3c[nH]c4ccccc34)c3cc(Cl)ccc32)cc1 (stereo not drawn)	i	-8%
Cc1ccc(C(=O)CSc2nnc(COc3cccc4cccnc34)o2)cc1	-4%	11%
Cc1ccc(SCc2ccc(C(=O)NCc3ccncc3)cc2)cc1	-20%	-19%
CC1CN=C(N(C(=O)Nc2ccccc2)C(C)C)S1 (stereo not drawn)	-8%	-9%
CCOC(=O)C1(Cc2cccc(OC)c2)CCCN(C(=O)c2ccc(OC)o2)C1 (stereo not drawn)	-15%	-5%

Carrying on.
SMILES	VACV mCherry inh	VACV Venus inh
COC(=O)[C@@]1(Cc2ccccc2)[C@H]2C(=O)N(Cc3ccccc3)C(=O)[C@H]2[C@H]2CN=C(SCc3ccc(C)cc3)N21	-9%	u
NC(=S)NNC(=O)Nc1cccc(Cl)c1	-4%	2%
O=C(NCCCN1CCc2ccccc2C1)C1CCN(S(=O)(=O)N2CCCC2)CC1	i	-11%
COc1cccc(C2Nc3ccccc3C(=O)N2c2ccc(F)cc2)c1O (stereo not drawn)	-4%	-16%
C/C=C(/C)C(=O)O[C@@H]1c2c(ccc3ccc(=O)oc23)OC(C)(C)[C@@H]1OC(C)=O	-5%	-20%
O=C(CCS(=O)(=O)c1ccccc1)NCCS(=O)(=O)c1ccccc1	i	-15%
COc1cccc(-c2nnc(-c3ccccc3NC(=O)c3cccc(C(F)(F)F)c3)o2)c1	-1%	-4%
O=C(c1ccc(S(=O)(=O)N2CCCC2)cc1)N1CCC(CN2C(=O)c3cccc4cccc(c34)C2=O)CC1	-9%	-10%
CCOC(=O)c1c(C)[nH]c(C)c1S(=O)(=O)N1CCCC(C(=O)Nc2ccccc2OCC)C1 (stereo not drawn)	-11%	-11%
CC1(C(=O)NS(=O)(=O)c2ccc(Cl)s2)CCN1C(=O)Cc1ccccc1Cl (stereo not drawn)	41%[activator]	5%
COc1cc(/C=C/C(=O)OCC(=O)NC(=O)NC(C)(C)C)ccc1OCC#N	-1%	-22%
Cn1c(=O)oc2cc(S(=O)(=O)Nc3ccc(O)cc3)ccc21	-8%	-8%
Fc1ccccc1/C=N/Nc1ncnc2ccccc12	u	-20%
CN(CC(=O)Nc1ccc(Cl)c(C(F)(F)F)c1)C(=O)CCN1C(=O)C2CC=CCC2C1=O (stereo not drawn)	-16%	u
CC(=O)NC(Cc1ccc(C)cc1)C(=O)NC1CCN(c2ncccc2[N+](=O)[O-])CC1 (stereo not drawn)	-15%	-4%
COc1ccc(N(CC(=O)Nc2cc([N+](=O)[O-])ccc2C)S(C)(=O)=O)cc1OC	2%	-11%
Cc1ccc(-n2ncc(C(=O)NCc3ccc4c(c3)OCO4)c2C2CCN(C(=O)OC(C)(C)C)CC2)c(C)c1	-25%	-23%
Cc1ccc(C(=O)Nc2cccc(-c3nc(CNC(=O)c4cccc(C)c4C)c(C)o3)c2)s1	u	-24%
CCCN(C(=O)CSCC(=O)Nc1cccc(C)c1)c1c(N)n(Cc2ccccc2)c(=O)[nH]c1=O	i	-7%
